GLA inh pH 4.5 – qHTS Assay for Inhibitors of Human alpha-Galactosidase at pH 4.5; Alpha-galactosidase A (Homo sapiens), P06280; purified enzyme, 4-MU-alpha-Gal fluorescence, pH 4.5; activity change, negative = inhibition, % at 105 µM; 230,000 tested, under 10 active; AID 1467, 2008; inconclusive = small, poorly fitted or top-dose-only inhibition, or a rising curve; inactive = flat fitted curve, though single readings scatter; no compound was filed as active;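 note: 0% = full activity with enzyme and -100% = basal without enzyme; dose as in the result columns while the protocol names 77 µM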
Target sequence (P06280 whole entry, looked up): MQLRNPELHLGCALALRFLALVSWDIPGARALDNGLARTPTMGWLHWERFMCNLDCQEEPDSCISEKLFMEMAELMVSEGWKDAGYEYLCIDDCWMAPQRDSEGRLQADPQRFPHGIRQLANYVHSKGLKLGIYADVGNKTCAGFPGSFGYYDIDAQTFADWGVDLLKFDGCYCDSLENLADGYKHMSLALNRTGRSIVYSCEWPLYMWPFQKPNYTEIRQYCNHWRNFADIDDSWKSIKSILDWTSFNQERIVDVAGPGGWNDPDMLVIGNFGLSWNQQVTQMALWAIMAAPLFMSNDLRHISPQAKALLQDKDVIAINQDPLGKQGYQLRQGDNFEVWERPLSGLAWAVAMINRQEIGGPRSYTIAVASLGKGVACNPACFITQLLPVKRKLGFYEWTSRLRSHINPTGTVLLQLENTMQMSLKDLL
miR-21 reporter – qHTS Assay for Modulators of miRNAs and/orActivators of miR-21. HeLa miR-21 FLuc reporter, luciferase, 48 h. Potency, µM (highest dose often 38.3 µM), inactives show at the top dose reporter change, positive = more light. 340,000 tested, under 10 active; active = well fitted rising curve with a large enough effect; inconclusive = small, poorly fitted or top-dose-only effect; inactive = no such curve, though single readings can be large or run the other way;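 note: % of control where 0% means no effect; miR-21 action dims this reporter so a rising signal means less miR-21 action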
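HeLa miR-21-FLuc reporter line, endogenous miR-21; 2000 cells/well in DMEM/10% FBS; compound titration up to ~40uM final, 48 h, 37 degree Celsius; luciferase detection reagent, 15 min lysis, CCD luminescence.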
Rango complex inh – qHTS Assay for Inhibitors of Rango (Ran-regulated importin-beta cargo) - Importin beta complex formation; Importin subunit beta-1 (Homo sapiens), Q14974; Rango CFP/YFP FRET sensor + importin beta, 45 min; Potency, µM (highest dose often 92.2 µM), for the others: at the highest dose inhibition of complex formation; hit rate 0.031% among 340,000; AID 540263, 2011; active = rising FRET ratio curve, often small or poorly fitted; inconclusive = mostly compound fluorescence or quenching in the first reads; inactive = flat curves in all reads;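 note: potency is the fitted concentration of half-maximal effect; 0% = DMSO wells and 100% = buffer wells lacking importin beta; nearly all actives have a fitted effect of over 15% in size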
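FRET biosensor (snurportin 1 IBB flanked by EYFP and cerulean), 50 nM, with compound 5 min, then 0.125 microM importin beta in PBS, 1 mM DTT, 0.02% Tween-20, 0.1% BSA. CFP/YFP ratio read after 45 min at room temperature; pre-read flags interference.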
Rango release inh – qHTS Assay for Inhibitors of RanGTP induced Rango (Ran-regulated importin-beta cargo) - Importin beta complex dissociation; Snurportin-1 (Homo sapiens) + GTP-binding nuclear protein Ran (Homo sapiens) + Importin …; Biochemical FRET Rango-importin beta, RanGTP-induced dissociation; Potency, µM (highest dose often 46.1 µM), inactives show at the top dose activity change, negative = inhibition; hit rate 0.071% among 340,000; AID 540253, 2011; active means falling FRET ratio curve, often poorly fitted, with flat reads before Ran was added; inconclusive means other falling curves, or compound fluorescence or quenching; inactive means flat or rising ratio curve;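 note: potency is the fitted concentration of half-maximal effect; % of control where 0% means no effect; nearly all actives have a fitted effect of over 45% in size; -100% = wells without RanGTP and RCC1; the record marks most hits as doubtful in a second field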
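Rango FRET biosensor (snurportin-1 IBB flanked by N-terminal EYFP and C-terminal CFP10) at 0.1 uM, with 0.25 uM importin beta in PBS, 1mM DTT, 0.02% Tween-20, 0.1% BSA. 0.6 uM Ran, 2mM GTP and 0.2 uM RCC1 were then added for 45 min at room temperature. Inhibition read as loss of FRET rise.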
Starred values were filed as active, the others as inactive; u = inconclusive; x = not tested or not shown; & = joins results of further samples.

SMILES | GLA inh pH 4.5 | miR-21 reporter | Rango complex inh | Rango release inh
CC(C)(C)c1cnnn1-c1ccc(NC(=O)c2ccc(Br)o2)cc1 | -3 | -6% | 3.6% | 5%
CCNC(=S)N/N=C/c1ccc(OCc2ccc(C(=O)OC)cc2)cc1 | 9 | -6% | -5.5% | -11%
Cc1nc(SC2C=CS(=O)(=O)C2)n[nH]1 (configuration not stated) | -1 | 4% | -7.2% | -7%
Fc1ccccc1CSc1nnc(-c2cnccn2)n1Cc1ccco1 | -3 | -48% | 1.1% | 1%
CCOC(=O)c1c(C)[nH]c(C)c1S(=O)(=O)N(C)CC(=O)NCc1ccc(C)cc1 | x | -8%&1% | -4.5% | 14%
CCCc1ccc2oc(C(=O)N(C)CCn3ccnc3C)c(C)c2c1 | x | 14% | 9.0% | -4%
COc1cc(C(CC(=O)N2CCCC2)c2c(OC)cc(OC)c3c(-c4ccccc4)cc(=O)oc23)cc(OC)c1OC (configuration not stated) | -11 | -4% | -0.9% | -3%
CCn1c(=O)c2ccccc2n(CC(=O)NC2CCCCC2)c1=O | x | 4% | -4.4% | 6%
CC(C)c1ccc(CNc2ccc3c(c2)ncn3C)cc1 | x | -16% | -1.1% | 7%
NC(=O)C1CCN(C(=O)CCC(=O)N2CCOc3ccc(Cl)cc32)CC1 | x | -3% | -1.2% | -4%
COc1cccc(NC(=O)Cn2c3ccc(F)cc3c3nc4n(c(=O)c32)CCCS4)c1 | x | -5% | -3.1% | 48%
CCCc1cc(=O)[nH]c(SCC(=O)Nc2cccc3ccccc23)n1 | x | -5% | -2.2% | -7%
O=c1c2ccccc2[nH]c(=S)n1CCCN1CCN(C2CCCCC2)CC1 | -5 | -5% | 0.6% | 0%
Cc1ccc(N=Nc2c(N)[nH]n3c(=O)cc(C)nc23)cc1 | -8 | -27% | 5.1% | -3%
Cc1cc(NC(=O)CSc2nc(-c3ccccc3Cl)nc3c2c(=O)n(C)c(=O)n3C)no1 | -5 | -2% | -2.1% | -3%
COc1ccccc1CNC(=O)Cc1ccc(C)cc1 | 1 | -22% | -1.0% | -6%
O=C(O)Cn1nnc(-c2cccs2)n1 | -24 | -2% | -0.6% | -7%
COc1ccc(S(=O)(=O)NC2CC3CCC2C3)cc1Cl (configuration not stated) | -17 | -3% | -1.1% | -5%
Cc1ccc(-n2nc3c(=O)n(CCCC(=O)NC4CCC(C)CC4)nc(C)c3c2C)cc1 (configuration not stated) | x | -5% | -0.2% | 0%
Cc1ccc(-c2nn(-c3ccccc3)cc2C(=O)NCC2CCCO2)cc1 (configuration not stated) | x | x | -1.9% | -14%
CCN(CC)c1ccc(NC(=S)Nc2ccc(F)cc2)cc1 | -8 | -32% | -0.1% | 3%
O=C(CN1C(=O)c2ccccc2C1=O)OCC(=O)N1CCCCC1 | x | x | 1.2% | 5%
Cc1cc(C(=O)Cn2cnc3ccccc3c2=O)c(C)n1C1CC1 | x | x | -0.1% | 7%
O=C(Nc1cc(S(=O)(=O)Nc2ccc(Cl)cc2)ccc1N1CCCCC1)c1ccc(F)cc1Cl | -13 | u | -4.4% | 12%
CCOC(=O)N1CCN(Cc2nc(-c3ccc(Cl)cc3)no2)CC1 | -24 | 2% | -0.1% | 24%
NNC(=O)CCN1CCCCC1 | 7 | -1% | -1.8% | 1%
COc1ccccc1/C=C1\SC(=S)N(CCC(=O)Nc2cc(C)on2)C1=O | x | -1% | 3.1% | 13%
C=C1CCN([C@@H](Cc2ccccc2)C(=O)NCc2ccccc2)S(=O)(=O)c2ccccc21 | x | x | -0.2% | 1%
COc1ccc(C(C(=O)NC2CCCCC2)N(C(=O)c2cccs2)c2ccc3c(c2)OCO3)cc1 (configuration not stated) | 4 | -2% | -0.8% | 21%
CSCCC1NC2(C(=O)Nc3c(Cl)cccc32)[C@@H]2C(=O)N(C3CCCC3)C(=O)[C@H]12 (some centres not stated) | -2 | -4% | -3.9% | 4%

Next part; it opens with the 2 that closed the last part.
SMILES | GLA inh pH 4.5 | miR-21 reporter | Rango complex inh | Rango release inh
COc1ccc(C(C(=O)NC2CCCCC2)N(C(=O)c2cccs2)c2ccc3c(c2)OCO3)cc1 (configuration not stated) | 4 | -2% | -0.8% | 21%
CSCCC1NC2(C(=O)Nc3c(Cl)cccc32)[C@@H]2C(=O)N(C3CCCC3)C(=O)[C@H]12 (some centres not stated) | -2 | -4% | -3.9% | 4%
O=C(Nc1ccccc1N1CCN(c2ccccc2)CC1)C12CC3CC(CC(C3)C1)C2 | 15 | -4% | -2.8% | 19%
OCC[C@H]1C[C@H](O)[C@@H](O)[C@]2(Cc3ccccc3CO2)O1 | x | x | -0.3% | -3%
O=C(Cn1cccc1C(=O)c1ccccc1)NCCCN1CCc2ccccc2C1 | -9 | -2% | -0.9% | -6%
CCCc1n[nH]c(=O)[nH]1 | 2 | -1% | -3.9% | -5%
Cc1c(Cl)cccc1NC(=O)CSc1nncn1-c1ccccn1 | x | -5% | 0.4% | 23%
CCOC(=O)c1cn[nH]c1NC(=S)Nc1ccc(Cl)cc1 | 4 | -22% | 1.2% | 12%
O=S(=O)(c1ccc(OCC(O)CN2CCN(c3ccccc3)CC2)cc1)N1CCOCC1 (configuration not stated) | -3 | 1% | -1.9% | 0%
O=C(CN1C(=O)/C(=C/c2ccccc2)SC1=S)NC1C=CS(=O)(=O)C1 (configuration not stated) | x | 1% | 1.6% | 0%
Cc1c(C(=O)NN2CCOCC2)cccc1[N+](=O)[O-] | x | x | 6.0% | 8%
Cc1cc(NC(=O)c2cc(C(C)C)on2)nn1Cc1ccc(Cl)cc1 | -1 | 2% | -4.8% | 23%
N#CC1C=Cc2c(ccc3ccccc23)N1C(=O)c1ccccc1 (configuration not stated) | x | x | 2.5% | -21%
Cc1ccc(NC(=O)CN(C)C(=O)Cc2ccccc2F)cc1 | x | -3% | -2.6% | 20%
CCOC(=O)c1ccc(NC(=O)Cn2nnc(-c3ccccc3)n2)cc1 | -6 | -4% | -5.9% | -18%
CCOC(=O)c1ccc(NC(=O)CN2CCN(C(=O)C3CCCO3)CC2)cc1 (configuration not stated) | x | 0% | -4.1% | -6%
Cc1ccc(-c2c(C)n([O-])c3c([n+]2=O)CCCC3)o1 | 3 | -1% | -0.4% | 0%
CCc1c2ccccc2nn1-c1ccccc1C(=O)C(C)=O | x | -3% | 3.8% | 24%
Cc1ccc(C2(c3ccc(C)cc3)CC2C(=O)NC(C)C)cc1 (configuration not stated) | x | 12% | 5.6% | 1%
COc1cc(CCC(C)=O)ccc1OC(=O)c1c(F)cccc1Cl | -11 | -62% | -1.1% | 15%
CS(=O)(=O)N(CC(=O)NC1CC1)c1cccc(F)c1 | -7 | -1% | u | -3%
Cc1ccc(C(=O)Nc2ccsc2C(=O)O)cc1 | x | -15% | -0.6% | -17%
CC(C)(C)NC(=S)N1CCC(C(=O)c2ccc(Cl)cc2)CC1 | x | -7% | 3.6% | -1%
COc1ccc(C(=O)NNC(=S)NC(=O)c2ccco2)cc1 | -3 | 14% | 0.1% | 17%
CN(C(=O)CSc1nnc(-c2cccs2)o1)C1CCS(=O)(=O)C1 (configuration not stated) | 2 | -3% | -0.1% | 15%
O=C(COc1ccccc1)NNC(=O)c1cccs1 | 1 | -5% | -3.3% | -22%
O=C(Nc1ccc(CN2CCOCC2)cc1)c1ccc(Cl)cc1 | x | -26% | 12% | 0%
CCOC(=O)C1C(c2cccc([N+](=O)[O-])c2)C2C(=O)NN=C2CC1(C)O (configuration not stated) | -4 | 6% | -1.7% | -28%
O=C(c1ccc(CS(=O)c2ccccc2Cl)o1)N1CCCCCC1 (configuration not stated) | x | -16% | -0.1% | 8%
COc1ccc(-c2nc3ccccn3c2Cl)cc1 | x | -38% | -0.8% | 17%
CSc1nc(N2CCN(c3ccccc3)CC2)cc(N2CCN(c3ccccc3)CC2)n1 | -3 | -4% | u | 12%
Cc1cccc(N=C2NC(=O)/C(=C/c3cn(C)c4ccccc34)S2)c1 | -3 | -10% | u | u
CC(C)c1ccc(N(CC(=O)NCc2cccnc2)S(=O)(=O)c2ccccc2)cc1 | x | 1% | 0.4% | -16%
COc1ccc(OCC(=O)Nc2cccc(-c3nc4ccccc4[nH]3)c2)cc1 | -6 | -4% | 3.2% | -4%
CCOc1ccc(NC(=S)NC(=O)c2c(Br)cnn2C)c([N+](=O)[O-])c1 | -1 | -24% | -0.2% | -8%
O=C(CCN1C(=O)C2CC=CCC2C1=O)Nc1cccc(S(=O)(=O)N2CCCCC2)c1 (configuration not stated) | x | x | -0.1% | 22%
Cc1ccc(NC(=O)c2ncn(CCCNCc3ccccc3)n2)cc1C | x | x | 1.5% | 0%
Cc1ccc(S(=O)(=O)N2CCN(C(=O)COC(=O)c3c(C)noc3C)CC2)c(C)c1 | 3 | 5% | u | 1%
CC(C(=O)N(C)C1CCS(=O)(=O)C1)N1C(=O)/C(=C/c2cccs2)SC1=S (configuration not stated) | x | 2% | -1.0% | -6%
O=C(Cn1cnc2c(nnn2Cc2ccccc2)c1=O)N1CCN(c2ccccc2)CC1 | 9 | -2% | -0.6% | 16%
CCOc1ccc(-c2nc(S(=O)(=O)c3ccccc3)c(N3CCOCC3)o2)cc1 | 1 | 0% | -1.4% | -5%
O=C(COC(=O)c1cc(S(=O)(=O)NCc2ccccc2)ccc1O)NCc1ccccc1 | 2 | -3% | 0.1% | 1%
C=CCN1C(=O)/C(=C/C(=O)OC)S/C1=N\NC(=O)c1ccccc1 | -2 | -2% | 4.6% | -12%
COc1ccccc1C(=O)NC1CC2CCC(C1)N2Cc1ccccc1 (configuration not stated) | x | -3% | u | 2%
CCOCCCn1c(SCC(=O)/C(C#N)=C(\C)N)nc2ccccc2c1=O | -2 | 1% | 4.7% | 6%
CCOc1ccc(C(=O)CCC(=O)Nc2cc(C)ccn2)cc1 | x | x | 0.4% | -1%
CC1C(=O)OC2C1CCC1(C)CCC(=O)C(C)C21 (configuration not stated) | x | 1% | -2.6% | -16%
O=C1OC(/C=C/c2ccccc2)=NC/1=C/C=C/c1ccccc1 | -11 | -9% | u | -18%
CC1CCCN(Cc2cnc(Cl)s2)C1 (configuration not stated) | 0 | -11% | -4.3% | -13%
O=C1CC(c2ccccc2)(c2ccccc2)c2ccccc21 | x | x | u | 0%
O=C(c1ccccc1)C(Sc1ncn[nH]1)c1ccccc1 (configuration not stated) | 2 | 0% | -0.4% | 3%
COc1ccc(-c2cc3ccccc3nc2N)cc1OC | x | 12% | -0.2% | 6%
CCN(CC)CCNC(=O)C(C)c1nn(C)c(=O)c2ccccc12 (configuration not stated) | 1 | -3% | -0.7% | 17%
N=c1c(C(=O)NCc2ccco2)cc2c(=O)n3ccccc3nc2n1CCc1ccccc1 | 3 | -8% | u | u
Cn1c(=NC(=O)CS(=O)(=O)c2ccccc2)sc2cc([N+](=O)[O-])ccc21 | x | x | 4.2% | 15%
Fc1ccc(OCc2nc(-c3cccs3)no2)cc1 | 4 | -72% | 1.9% | -6%
O=C1C=CC(=O)N1c1ccc(I)cc1Cl | 7 | -3% | x | x
CC(c1nc2ccccc2c(=O)[nH]1)N1CCCN(S(=O)(=O)c2ccc(F)cc2)CC1 (configuration not stated) | x | x | 1.9% | -18%
O=C(O)c1cc2ccccc2cn1 | x | x | 2.5% | 5%
Cc1cc(O)cc(=O)n1CCc1ccccc1 | x | -12% | -2.4% | 6%

4 compounds from above, sorted by the value under Rango release inh, rising.
SMILES | GLA inh pH 4.5 | miR-21 reporter | Rango complex inh | Rango release inh
Fc1ccc(OCc2nc(-c3cccs3)no2)cc1 | 4 | -72% | 1.9% | -6%
O=C(c1ccccc1)C(Sc1ncn[nH]1)c1ccccc1 (configuration not stated) | 2 | 0% | -0.4% | 3%
COc1ccc(-c2cc3ccccc3nc2N)cc1OC | x | 12% | -0.2% | 6%
Cn1c(=NC(=O)CS(=O)(=O)c2ccccc2)sc2cc([N+](=O)[O-])ccc21 | x | x | 4.2% | 15%

An excerpt; count on the stated rates, not on these rows.
